H5N1 antiviral: MDCK cell protection from H5N1 avian flu; cytopathic effect, luminescence, 72 h; active compounds read high; no value below 0 was filed and about half of the inactive calls have no number; reference of the scale not given here; inhibition, % at 50 µM; AID 740, 2007; 96,000 compounds, 0.07% hits; in the data active means inhibition above about 25%
* = called active by the depositor; i = inactive. Some of the compounds tested (hit frequency here may not be typical).

SMILES	H5N1 antiviral
CCOC(=O)c1sc(=S)n(-c2ccc(C)cc2)c1SC	i
O=C(Nc1ccccc1)OCC1CCCN2CCCCC12 (configuration not stated)	0.4
CNC(=S)NCCc1ccc(OC)c(OC)c1	i
CC(C)OCCCNC(=O)c1ccc(N(C)S(C)(=O)=O)cc1	0.2
Cc1nc2ccc(C(=O)O)cc2c2c1CC(C)S2 (configuration not stated)	2.1
O=C(CC1=NCCNC(c2ccccc2)C1)c1ccccc1O (configuration not stated)	i
Cn1c(-c2ccc3c(c2)OCO3)cnc1N	i
Cn1c(C(=O)NCCCN2CCCC2=O)cc2c(=O)n(C)c3ccccc3c21	3.8
Cc1nn(C)c(C)c1CNC(=O)c1cc2n(n1)C(C(F)(F)F)CC(c1cccs1)N2 (configuration not stated)	0.3
O=C1Nc2ccc(S(=O)(=O)NCc3ccccn3)c3cccc1c23	0.9
Cc1ccccc1Nc1nc(N)nc(CSc2nnc(-c3ccccc3)n2C)n1	i
O=C(CCCC(=O)N(CC(=O)NC1CCCC1)Cc1ccc2c(c1)OCO2)Nc1ccccn1	i
COc1cccc(C2CC(c3ccc(C)cc3)n3ncnc3N2)c1 (configuration not stated)	i
[O-][n+]1c2c(nn1-c1ccccc1Cl)-c1nonc1CC2	i
Cc1cc(C)cc(C(=O)NCCn2cc(SCC(=O)N3CCOCC3)c3ccccc32)c1	0.1
CNC(=S)N1C2CCC1CC(NC(=O)NC13CC4CC(CC(C4)C1)C3)C2 (configuration not stated)	1.8
COc1ccc(-c2ccc(-c3noc(-c4ccco4)n3)c(OC)n2)cc1	2.1
COc1ccc(C2C3=C(CC(C)(C)CC3=O)Oc3ncn(Cc4ccco4)c(=N)c32)cc1 (configuration not stated)	i
CC(=O)Nc1ccc(S(=O)(=O)N=S(C)C)cc1	1.4
NC(=O)c1ccc(-n2nnnc2SCC(=O)Nc2ccc(N3CCOCC3)c(Cl)c2)cc1	0.8
C=CCn1c(C)cc(C(=O)CSc2ccc(NC(C)=O)cc2)c1C	3.8
CCCc1[nH]nc2c1C1(C(=O)N(CC)c3ccccc31)C(C#N)=C(N)O2 (configuration not stated)	0.1
CCn1c(N)c(C(=O)NCCCOC)sc1=S	0.1
CCc1ccccc1NS(=O)(=O)c1ccc(SC)cc1	0.2
S=C1CCSc2ccc(Cl)cc2N1	i
CCOC(=O)C1=C(CN2CCCCC2)NC(=O)NC1c1cc(C)ccc1C (configuration not stated)	i
O=C1CCN(N=Nc2cccc(Cl)c2)N1	i
O=C(/C=C/c1ccc(Cl)cc1Cl)NCc1ccncc1	i
CCOC(=O)c1nnn(-c2nonc2-n2cccc2)c1CN1CCOCC1	1.9
Cc1cc(N=Cc2c(O)n(-c3ccc4c(c3)OCO4)c(=O)c3ccccc23)ccn1	5.3
CCOc1c(Br)cc(CNc2ncn[nH]2)cc1OC	1.0
CCOC(=O)CSc1nc2sc(C)c(C)c2c(=O)n1C	4.8
COc1cc(C2N(c3ccccc3)CCN2c2ccccc2)ccc1OC(C)=O	i
Cc1ccc(NC(=O)C2(N(CC(C)C)C(=O)Cn3nnnc3N)CCCCC2)cc1	0.1
Nc1cccc(S(=O)(=O)c2cccc(N)c2)c1	0.5
CCn1c(O)c(C=Nc2ccccc2)oc1=S	0.7
CCOc1cccc(OCCCOc2ccccc2)c1	i
CC(C)(C)OC(=O)N1CC=C2C(C#N)=C(N)C(C#N)(C#N)C(c3cccs3)C2C1 (configuration not stated)	3.9
COC(=O)c1cn(NC(=O)CCC2CCCC2)c(=O)c2ccccc12	i
COc1cc(C(=O)NCc2nnc(SCC(=O)Nc3cccc(C)c3)o2)cc(OC)c1OC	0.7
O=C(NCc1ccccn1)C1CC(c2ccc(F)cc2)=NO1 (configuration not stated)	i
Cc1ccc(C)c(-c2nn(-c3cc(N4CCN(CCO)CC4)ccc3[N+](=O)[O-])c(=O)c3ccccc23)c1	i
CSc1cccc(NC(=O)C2CCN(S(C)(=O)=O)CC2)c1	i
CCOc1ccccc1C(=O)NC(C)c1ccc2c(c1)OCO2 (configuration not stated)	i
O=C(OCCOc1ccc(Br)cc1)c1cnccn1	i

Grouped by structure: those above with bromine.
SMILES	H5N1 antiviral
CCOc1c(Br)cc(CNc2ncn[nH]2)cc1OC	1.0
O=C(OCCOc1ccc(Br)cc1)c1cnccn1	i

Continuation.
SMILES	H5N1 antiviral
O=C(CN1C(=O)CSc2ccccc21)Nc1ccc2c(c1)OCCO2	i
COc1ccc(C2=CC(c3ccc(OC)c(OC)c3)NC(=S)N2)cc1 (configuration not stated)	i
CCOc1cccc(/C(O)=C2/C(=O)C(=O)N(Cc3cccnc3)C2c2ccco2)c1 (configuration not stated)	i
COc1ccc(CNC(=O)c2cnn3c(C(F)F)cc(C)nc23)cc1OC	5.0
Cc1c(C(=O)N2CCOCC2)sc2ncn(CC(=O)N3CCC(C)CC3)c(=O)c12	1.2
CCCOC(=O)c1ccc(NC(=O)C2CCCO2)cc1 (configuration not stated)	0.1
CCOC(=O)c1ccc(-n2[nH]c(-c3ccccc3)cc2=O)cc1	i
Cc1cc(C)nc(-n2nc(C)cc2Nc2ccccc2)n1	0.3
Cc1ccccc1-c1nnc(SCCOc2ccc3c(C)cc(=O)oc3c2)o1	i
O=C(Oc1ccccc1)N1CCN(c2ccc(F)cc2)CC1	0.6
CCOc1ccc(-n2c(SCc3nc(-c4ccc(C)cc4)no3)nnc2-c2ccncc2)cc1	i
COc1ccc(OC)c(NC(=O)COc2ccc(S(=O)(=O)NC(C)C)cc2)c1	0.1
O=C(NC(C(=O)N/N=C/c1cccc2ccccc12)c1n[nH]c(=O)c2ccccc12)c1ccccc1 (configuration not stated)	i
CC(C(=O)Nc1ccc2c(c1)OCCO2)N1CCN(C(=O)c2ccco2)CC1 (configuration not stated)	i
Cc1ccccc1S(=O)(=O)Nc1nc2ccccc2nc1N1CCOCC1	0.4
C=C(C)C1CC=C(C)/C(=N/NC(=O)CNc2ccc(OCC)cc2)C1 (configuration not stated)	i
O=C(Nc1cccnc1)c1ccc2c(c1)OCO2	i
Clc1ccc(COc2ccccn2)cc1Cl	0.3
COc1ccc2c(CCNC(=O)c3ccco3)c[nH]c2c1	0.7
Cc1ccc(NCc2nnc(SCCN3CCCCC3)n2CC2CCCO2)cc1Cl (configuration not stated)	i
Cc1ccc(N(CC(=O)N2CC(=O)Nc3ccccc32)S(=O)(=O)c2ccc3c(c2)OCCO3)cc1	0.4
CCOC(=O)/C(C#N)=C\C=C1C=CN(C)C=C1	0.5
Cc1oc(-c2ccccc2)cc1C(=O)Nc1ccc(N(C)C)cc1	i
Cc1[nH]n(-c2ccccc2)c(=O)c1/C=N/O	i
Cc1occc1C(=O)NCc1cccs1	i
COc1ccc2c(c1)CCc1c(C(=O)N3CCc4ccccc4C3)noc1-2	0.6
c1ccc(-c2ccc(C3=Nn4c(Cn5nnc6ccccc65)nnc4SC3)cc2)cc1	1.1
Cc1nnc(SCC(=O)n2c3c(c4ccccc42)CCCC3)s1	3.8
CCCNC(=O)c1cc(-c2ccc(Br)cc2)on1	i
COc1ccc(NC(=O)c2sccc2C)c([N+](=O)[O-])c1	i

Pulled by compound from the entries so far:
SMILES	H5N1 antiviral
COc1ccc2c(c1)CCc1c(C(=O)N3CCc4ccccc4C3)noc1-2	0.6
COc1ccc2c(CCNC(=O)c3ccco3)c[nH]c2c1	0.7
c1ccc(-c2ccc(C3=Nn4c(Cn5nnc6ccccc65)nnc4SC3)cc2)cc1	1.1

Molecules listed so far that contain an NH in an aromatic ring:
SMILES	H5N1 antiviral
CCCc1[nH]nc2c1C1(C(=O)N(CC)c3ccccc31)C(C#N)=C(N)O2 (configuration not stated)	0.1
CCOc1c(Br)cc(CNc2ncn[nH]2)cc1OC	1.0
CCOC(=O)c1ccc(-n2[nH]c(-c3ccccc3)cc2=O)cc1	i
O=C(NC(C(=O)N/N=C/c1cccc2ccccc12)c1n[nH]c(=O)c2ccccc12)c1ccccc1 (configuration not stated)	i
COc1ccc2c(CCNC(=O)c3ccco3)c[nH]c2c1	0.7
Cc1[nH]n(-c2ccccc2)c(=O)c1/C=N/O	i

Remaining list, next part
SMILES	H5N1 antiviral
CCOc1ccc(-c2nnn(CC(=O)Nc3ccccc3OC)n2)cc1OCC	3.0
O=C(N/C(=C\c1cccc([N+](=O)[O-])c1)C(=O)N1CCCCC1)c1cccs1	0.1
Cc1nn(-c2ccccc2)c(C)c1/C=N/O	1.0
OCC12COC3c4ccccc4C(OC1)N32 (configuration not stated)	0.6
Cc1ccccc1NC(=O)CN1CCC(NC(=O)Nc2ccccc2)CC1	i
CCN(CC)C(=O)CSc1nnc(-c2ccccn2)n1-c1ccc(C)c(C)c1	0.7
O=C(Nc1cccnc1)c1ccc(COc2ccccc2Br)o1	i
O=C1COc2ccc(C(=O)COC(=O)C3CCN(S(=O)(=O)c4cccs4)CC3)cc2N1	i
Clc1ccc(OCc2nn3c(-c4ccncc4)nnc3s2)cc1	i
NNC(=O)CNC(=O)c1ccccc1F	i
COC(=O)c1ccc(CSc2nnc(-c3c[nH]c4ccccc34)n2C)o1	1.9
CN(CC(=O)Nc1nc2ccccc2s1)S(=O)(=O)c1ccccc1	i
O=c1c2[nH]c3ccccc3c2ncn1Cc1ccco1	i
COc1ccccc1OCC(=O)Nc1cccc(-c2nc3ccccc3o2)c1	i
CCC1=C/C(=C/N(C)c2ccccc2)C(=O)S1	i
CCOC(=O)c1nn(-c2sc(C(=O)OC)c(C)c2C(=O)OC)cc1O	0.4
O=C(Cc1cccs1)N(c1ccc(Cl)cc1)C1C=CS(=O)(=O)C1 (configuration not stated)	i
NC(=O)CSP(=O)(c1ccccc1)c1ccccc1	0.5
Cc1cc(-c2nc3ncccc3o2)ccc1NC(=O)CC(C)C	1.1
Cc1cc(C)c(S(=O)(=O)NCc2ccc3c(c2)cc(C)n3C)c(C)c1	13
O=C1c2ccccc2C(Nc2ccc3nc(-c4cccnc4)[nH]c3c2)N1Cc1ccco1 (configuration not stated)	i
CCOC(=O)C1CCCN(Cc2cccs2)C1 (configuration not stated)	i
O=C1CCC(C(=O)OCc2cc(Cl)ccc2OC(F)F)N1 (configuration not stated)	0.9
CC1CCCC(C)N1C(=O)CSc1nnnn1-c1cccc2c1CCCC2 (configuration not stated)	0.5
Cc1cc(=O)[nH]c(N2CCCC2)n1	i
CCN(CC)C1=NC(=[N+](CC)CC)c2ccccc21	6.0
C=Cn1ccnc1P(=S)(c1c(C)nn(-c2ccccc2)c1C)c1nccn1C=C	i
O=C(Cc1cccs1)NCc1ccco1	i
N#Cc1ccccc1/C=N/Nc1nc(-c2ccccc2)c2cc(Br)ccc2n1	i
Clc1ccc(OCc2cc(-c3ccccc3)no2)c(Cl)c1	i
CCN1CCN(C(c2cccs2)C(C)NS(=O)(=O)c2ccc(F)cc2)CC1 (configuration not stated)	1.4
COc1ccccc1C(c1nnnn1C(C)(C)C)N1CCN(Cc2ccncc2)CC1 (configuration not stated)	0.7
N#CCC(=N)N1CCN(c2cccc(Cl)c2)CC1	i
CC(C)(C)NC(=O)COC(=O)c1cc(F)c(F)cc1Cl	i
O=C(Nc1ccc(Cc2ccc(NC(=O)C3CC3)c(O)c2)cc1O)C1CC1	i
Brc1cccc(/C=N\n2cnnc2)c1	1.3
O=C(O)CC(C(=O)N(c1ccccc1)c1ccccc1)N1CCOCC1 (configuration not stated)	0.6
COc1ccccc1CNC(=O)c1cnccn1	0.3
Clc1ss/c(=N\c2ccccn2)c1Cl	i
Cc1ccc2oc(-c3cccc(NC(=O)c4ccc(Br)o4)c3)nc2c1	0.6
O=C(Nc1ccccc1)N(C1=NCCC1)c1ccc(OC(F)F)cc1	1.6
CCC(c1nnnn1CCOC)N(Cc1cc2c(C)cc(C)cc2[nH]c1=O)CC1CCCO1 (configuration not stated)	2.2
O=S(=O)(Nc1nc2ccccc2nc1NCc1ccco1)c1cccs1	3.3
Cc1c(-c2ccccc2)sc(Br)c1C(=O)N1CCOCC1	1.4
COC(=O)Nc1cccn(Cc2c(Cl)cccc2Cl)c1=O	0.1
O=C(c1cc2ccccc2o1)c1nc2c(n1O)CCCCC2	i
Cc1nnc(SCCCN2C(=O)c3ccccc3C2=O)o1	i
CSC1=NCCN1C(=O)Cc1cccs1	0.6
Cc1ccc(C(=O)NNC(=S)NC(=O)COc2ccccc2)cc1	i
CCN1CCCC1CNC(=O)C1c2ccccc2C(=O)N(CCOC)C1c1ccc(F)cc1 (configuration not stated)	i
CCN(CC)S(=O)(=O)c1cc(C(=O)n2cccn2)c(Cl)cc1Cl	i
COCCn1nnnc1C(c1cc2cc(OC)ccc2[nH]c1=O)N1CCC(Cc2ccccc2)CC1 (configuration not stated)	0.5
O=C(c1ccco1)N1CCN(c2ncnc3c2[nH]c2ccccc23)CC1	4.7
CCCn1c(SCC(=O)N2CCN(S(=O)(=O)c3ccc(Cl)cc3)CC2)n[nH]c1=O	2.6
Cc1ccc(/C=C(\NC(=O)c2ccc(C)cc2)c2nc(=S)[nH][nH]2)cc1	i
O=C(COc1ncnc2ccccc12)NC1CCS(=O)(=O)C1 (configuration not stated)	i
O=c1cc(N2CCCCC2)c(-c2ccccc2)nn1Cc1ccc(Cl)cc1Cl	i
O=C1CCCc2nc(N3CCN(C(c4ccccc4)c4ccccc4)CC3)ncc21	i
COc1ccc(COc2ccsc2C(=O)Nc2ccc(Cl)c(Cl)c2)cc1	0.9
COc1ccc(Cc2nc(-c3ccc(-n4cccc4)cc3)no2)cc1OC	i
O=C(CN1C(=O)c2cccc3cccc1c23)N1CCN(c2ccc(F)cc2)CC1	0.5
CCOC(=O)c1c(C)[nH]c(C(=O)C(C)Sc2ccc(Cl)cc2)c1C (configuration not stated)	i

Bioassay records: PubChem BioAssay, SRMLSC
